Screening results: PubChem, National Center for Advancing Translational Sciences (NCATS)
VDR inh – blocks the human vitamin D receptor | P11473 | VDR-SRC2-3 peptide fluorescence polarization, 2 h | Potency, µM, without a hit: max response, negative = inhibition, actives largely listed as inhibitors | 400,000 tested, 0.93% active; active means well fitted inhibition curve with a large enough effect; inconclusive means small, poorly fitted or top-dose-only effect, or another doubt; inactive means no such curve, though single readings can be large or run the other way; further: series mostly up to about 120 µM
Target sequence (P11473 whole entry, looked up): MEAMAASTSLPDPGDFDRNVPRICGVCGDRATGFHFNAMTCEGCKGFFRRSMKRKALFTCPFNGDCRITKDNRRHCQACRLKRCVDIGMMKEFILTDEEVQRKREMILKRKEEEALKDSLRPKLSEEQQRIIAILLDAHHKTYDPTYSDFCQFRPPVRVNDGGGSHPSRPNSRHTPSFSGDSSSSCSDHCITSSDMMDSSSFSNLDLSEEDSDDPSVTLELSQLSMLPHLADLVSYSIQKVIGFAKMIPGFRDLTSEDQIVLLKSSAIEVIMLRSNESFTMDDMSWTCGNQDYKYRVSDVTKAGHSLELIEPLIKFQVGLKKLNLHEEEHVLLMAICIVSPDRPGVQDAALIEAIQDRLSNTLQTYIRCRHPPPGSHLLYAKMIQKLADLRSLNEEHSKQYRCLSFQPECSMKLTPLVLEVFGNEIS
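After 23 nl compound addition and a short centrifugation, plates sat for 2 hours at ambient temperature; polarization of fluorescence then indicated loss of VDR binding to peptide SRC2-3.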
An asterisk follows results filed as active; ? = inconclusive; & = joins results of further samples; [ ] = dose if it differs, or a comment. On the % scale 0 is the no-effect control and ±100 the full control effect; potency means the concentration at half of the fitted maximal effect.

SMILES,VDR inh
CC1CCCC(C)N1C(=O)CSc1nc(N)cc(N)n1 (stereo unspecified),6%
Cc1cc(C)c(S(C)(=O)=O)c(Sc2ccc(Cl)cc2)n1,4%
COc1ccccc1S(=O)(=O)Cc1ccc(C(=O)N2CCN(c3ccccc3)CC2)o1,11%
COC(=O)Cc1c(C)c2c(O)cc(C)cc2oc1=O,1%
Cn1c(-c2ccc(Br)cc2)cnc1NCc1cccnc1,-7%
Oc1ccc(/C=N/Nc2ncnc3nc[nH]c23)cc1,-4%
COc1ccc(-c2csc(NC(=O)CSc3nc(C)nc4sc(C(=O)O)c(C)c34)n2)cc1,31%[activator]
CCn1cc(C(=O)N(C)CC(OC)OC)c(=O)c2cc(S(=O)(=O)N3CCOCC3)ccc21,-3%
COc1ccc(NC(=O)CCS(=O)(=O)c2nc(-c3ccc4c(c3)OCO4)cc(C(F)(F)F)n2)cc1,?
CCOC(=O)c1cc(-c2ccncc2)nc2c1c(C)nn2C,-6%
CCc1ccc(C2Sc3ccccc3NC3=C2C(=O)c2ccccc23)cc1 (stereo unspecified),?
O=C(O)c1ccccc1CSc1nc2ccccc2o1,1%
CSc1ccc(CN2CCN(Cc3ccccc3)C(CCO)C2)cc1 (stereo unspecified),-4%
CCOCCCNC(=O)C(c1ccccc1)N(Cc1cccs1)C(=O)c1ccc(NC(C)=O)cc1 (stereo unspecified),-4%
Cc1nn2c(=O)cc(COC(=O)c3ccccc3NC(=O)COc3ccccc3C)nc2s1,12%
CCC1SC2=NC(C)=C(C(=O)OC)C(c3cccs3)N2C1=O (stereo unspecified),9%
Cc1c(/C=C/C(=O)c2ccc(O)cc2)cnn1C,-1%
CC(=O)c1ccc(NS(=O)(=O)c2ccc3[nH]c4c(c3c2)CCCCCC4)cc1,19%
CCOc1ccc(CC(=O)NNC(=S)NCCc2ccccc2)cc1,-8%
COc1ccc(CNC(=S)NC2CCCC2)cc1,3%
COC(=O)CSc1nn(-c2ccc(F)cc2)c(=S)s1,?
Cc1nn(Cc2ccc(Cl)cc2Cl)c(C)c1NC(=O)c1ccc(COc2cc(Cl)ccc2Cl)o1,3%
CCCn1c(SCC(=O)c2c(C)[nH]c(C)c2C(=O)OCC)nc2ccccc21,-16%
CCN1CC(O)=C(c2nc3ccccc3s2)C1=N,7%
COc1cccc(-c2cnc(NCc3cc(Cl)ccc3O)n2C)c1,-5%

Next records:
SMILES,VDR inh
CCCn1c(N2CCN(Cc3cccc(C)c3)CC2)nc2c1c(=O)[nH]c(=O)n2C,6%
CC1=C(C(=O)Nc2cccnc2)C(c2ccncc2)n2nnnc2N1 (stereo unspecified),15%
CN1c2ccsc2C(O)=C(C(=O)Nc2ccccc2)S1(=O)=O,1%
Cc1ccc(S(=O)(=O)N(CCO)Cc2ccccc2)cc1,-5%
CCC(=O)Nc1ccc(S(=O)(=O)Nc2cccnc2)cc1,5%
Cc1cccc(Nc2ncnc3ccccc23)c1,7%
N#CCc1ccc(Oc2ncc(C(F)(F)F)cc2Cl)cc1,9%
Cc1nc2ccc(S(=O)(=O)NCC(=O)N(C)Cc3ccco3)cc2s1,11%
Cc1cc(C)c(NS(=O)(=O)c2ccccc2)c(C)c1,-2%
O=C(Nc1ccccc1Oc1ccsc1C(=O)O)c1ccccc1F,-14%
COc1ccccc1NC(=O)N(Cc1ccco1)Cc1cc2cc(C)cc(C)c2[nH]c1=O,4%
O=C(/C=C/c1ccc(Cl)cc1)N1CCN(c2ccc(Cl)cc2[N+](=O)[O-])CC1,-5%
O=[N+]([O-])C(=C1NCCN1)C(Cl)=C(Cl)Cl,6%
CCCc1cc(=O)oc2c(CN3CCN(C)CC3)c(O)c(Cl)cc12,-1%
Cc1ccc(CN(C)C(=O)CN2C(=O)NC(c3ccccc3)(c3ccccc3)C2=O)c(C)c1,83%[activator]
COc1ccc(/C=N/NS(=O)(=O)c2ccccc2)cc1OS(=O)(=O)c1ccc(C)cc1,17%
CSc1nncn1/N=C/c1ccc([N+](=O)[O-])cc1,0%
S=c1[nH]c(-c2ccccc2)cn1/N=C/c1cccnc1,-15%
CCOC(=O)c1cc2c(=O)n3ccccc3nc2n(CCOC)c1=NC(=O)c1c(-c2ccccc2Cl)noc1C,-3%
COc1cc(NC(=O)CCc2nnc3ccc(NCc4ccco4)nn23)cc(OC)c1,-7%
CCSc1oc(-c2ccco2)nc1S(=O)(=O)c1ccc(C)cc1,-6%
Cc1ccc(C(=O)Nc2ncc(Cc3ccccc3)s2)o1,4%
O=C(CN1C(=O)NC2(CCCCC2)C1=O)Nc1cccc(S(=O)(=O)N2CCOCC2)c1,1%
Cc1ccc(C(C)C)c(OCC(=O)Nn2c(C)nc3ccccc3c2=O)c1,7%
CC(=O)c1ccc(S(=O)(=O)N2CCN(c3nc4c(C)c(C)ccc4cc3C#N)CC2)cc1,-3%

(further entries)
SMILES,VDR inh
COc1cc(CC(=O)Nc2cccc(SC)c2)cc(OC)c1OC,-6%
COc1ccc(S(=O)(=O)NC2CCCC2)c(OC)c1,-4%
Cc1ccc(NC(=O)COC(=O)C2CCC(=O)N2)c([N+](=O)[O-])c1 (stereo unspecified),-18%
COc1ccc(CCNC(=O)c2ccc3c(c2)N(Cc2ccc(C)cc2)CCS3)cc1OC,3%&-1%
CN(C)c1nc2ncn(Cc3ccccc3)c2c(=O)[nH]1,8%
COc1cccc(CC(=O)Nc2ccc(S(=O)(=O)Nc3nc(C)cc(C)n3)cc2)c1,?
COc1ccc(CNc2ncnc3onc(-c4ccc(F)cc4)c23)cc1,2%
O=C(COC(=O)C1CCN(S(=O)(=O)c2cccc3cccnc23)CC1)c1ccc([N+](=O)[O-])cc1,-1%
CCCCN(CCCC)C(=S)NC(=O)c1ccccc1Cl,6%
O=C(CSc1nc2ccccc2c(=O)n1-c1ccccc1Cl)Nc1cccc(S(=O)(=O)N2CCOCC2)c1,-9%
CC(NS(=O)(=O)c1cccc(C(=O)N(C)Cc2ccc(N3CCOCC3)cc2)c1)c1ccccc1 (stereo unspecified),6%
Cc1nc(SC(C)C(=O)Nc2c(C)n(C)n(-c3ccccc3)c2=O)nc(C)c1C (stereo unspecified),-20%
Cc1ccc(NC(=O)CO/N=C(\N)c2nonc2N)cc1,15%
COc1ccc(S(=O)(=O)Nc2c(C(=O)O)[nH]c3ccccc23)cc1,-6%
COc1ccc(CNC(=O)C2(CC3CC(c4ccccc4)=NO3)CCN(C(=O)Cc3ccc(F)cc3)CC2)cc1 (stereo unspecified),0%
CCOc1ccc(N(C)S(=O)(=O)c2ccc(-c3ccc(=O)[nH]n3)s2)cc1,-1%
CCN(C(=O)c1cccc(S(=O)(=O)N2CCCCC2)c1)C1CCS(=O)(=O)C1 (stereo unspecified),-2%
C=CCNC(=O)c1oc2ccc(S(=O)(=O)N(CC)CC)cc2c1C,-19%
N#C/C(=C\c1ccc(O)c(O)c1)C(N)=O,-21%&-14%
COc1ccc(CN2CCN(C3CCC3)CC2CCO)c(F)c1 (stereo unspecified),-3%
O=C1CCCc2[nH]nc(-c3cccnc3)c21,8%
C[N+](C)(C)C(Cc1ccccc1)C(=O)[O-] (stereo unspecified),-3%
Cn1nc(C(=O)N2CCCCC2)c2c1-c1ccccc1S(=O)(=O)C2,3%
CN(CC(=O)Nc1ccccc1Cl)C(=O)COC(=O)C1CCN(c2ccc(C(F)(F)F)cn2)CC1,-4%
Cc1ccc(-n2cc(C(=O)c3ccc(F)cc3)nn2)cc1Cl,-10%

More results follow:
SMILES,VDR inh
COc1ccccc1C(=O)Nc1nc2ccc(S(=O)(=O)N3CCCC3)cc2s1,-6%
Cc1cc(C)cc(Nc2cnn(C34CC5CC(CC(CC(=O)O)(C5)C3)C4)c(=O)c2Cl)c1,-15%
COc1ccc(C2C(C#N)=C(N)OC3=C2C(=O)CC(C)(C)C3)cc1 (stereo unspecified),3%
O=C(NCc1cccc(F)c1F)C1CCC(=O)N(C2CCCCCC2)C1 (stereo unspecified),13%
COc1ccc(CNC(=O)Cn2nc(C)c3c(C)n(-c4ccc(C)cc4)nc3c2=O)cc1OC,-8%
CC(=O)N1CCN(c2ccc(NCc3ccc4c(c3)OCO4)cc2)CC1,?
CCN1C(=O)N[C@@H](CCc2ccccc2)[C@H](C(C)=O)[C@H]1C,0%
Cc1ccc(S(=O)(=O)Cc2ccc(C(=O)NC3CCCC3)o2)cc1,11%
COc1ccc(OCC(=O)OCC(=O)NCc2ccc(F)cc2)cc1,-1%
CCOC(=O)C1(CCCc2ccccc2)CCN(C(=O)COC)CC1,0%
O=C(CNC(=O)c1ccccc1F)OCc1cc(=O)n2nc(C3CCCCC3)sc2n1,18%
Cc1nn(Cc2ccc(Cl)cc2)c(C)c1NC(=O)c1ccc([N+](=O)[O-])cc1,-18%
Cc1cc(C)c(NC(=O)c2ccc3nccnc3c2)c(C)c1,7%
COc1cccc(NS(=O)(=O)c2ccc(-c3coc(C)n3)cc2)c1,-8%
CC(C)c1ccc(CNn2cnnc2)cc1,-15%
CN1C(C(=O)Nc2ccccn2)=C(O)c2sc(Cl)cc2S1(=O)=O,-27%
COc1ccc(C2CC(=O)C3=C(C2)Nc2ccccc2N(C(=O)CCC(=O)O)C3c2ccc(F)cc2)cc1 (stereo unspecified),-3%
O=C(Nc1cccnc1Cl)c1cc2c(s1)-c1ccccc1OC2,-4%
CC(C)C(NC(=O)c1ccc(C(C)(C)C)cc1)C(=O)N1CCCC1 (stereo unspecified),-12%
Cc1cc(C(=O)COC(=O)C2CC2)c(C)n1-c1ccc(F)cc1,3%
Cc1ccccc1NC(=S)Nc1ccc2cn[nH]c2c1,-11%
CC1CCCCC1NC(=O)/C(C#N)=C/c1ccccc1F (stereo unspecified),?
Cc1ccc(C(=O)OCn2ncc(Cl)c(Cl)c2=O)cc1,?
O=C(NCCc1c[nH]c2ccccc12)c1cc2sccc2n1Cc1ccccc1,14%
COc1ccc(-n2c(SCC(=O)N3CCCCC3)nc3ccccc3c2=O)cc1,4%

Three compounds out of the list, arranged by formula weight, high to low:
SMILES,VDR inh
CN(CC(=O)Nc1ccccc1Cl)C(=O)COC(=O)C1CCN(c2ccc(C(F)(F)F)cn2)CC1,-4%
Cn1nc(C(=O)N2CCCCC2)c2c1-c1ccccc1S(=O)(=O)C2,3%
N#C/C(=C\c1ccc(O)c(O)c1)C(N)=O,-21%&-14%

More compounds follow:
SMILES,VDR inh
COC(=O)C(C)(C)ONC(=O)Nc1ccccc1[N+](=O)[O-],15%
COC(=O)c1[nH]c(C)c(/C(O)=C2\C(=O)C(=O)N(CCN(C)C)C2c2ccco2)c1C (stereo unspecified),3%
CCOc1ccc(NC(=O)NC2CCS(=O)(=O)C2)cc1 (stereo unspecified),-15%
Cc1ccc(N2CCN(C(=O)C3CCCN(c4ncnc5c4nc4n5CCCCC4)C3)CC2)c(C)c1 (stereo unspecified),-8%
S=c1[nH]nc(Cn2nnc3ccccc32)n1-c1ccccc1,6%
CC(C)CC(=O)Nc1nnc(S(=O)(=O)N(CC(C)C)c2ccccc2)s1,13%
Cc1ccc(C(=O)C[n+]2ccc3ccccc3c2)cc1,9%
OC(c1cccnc1)c1cccs1 (stereo unspecified),12%
CCOC(=O)/C(C#N)=C1/SC(CC)C(=O)N1c1ccc(C)cc1 (stereo unspecified),2%
CCc1cc(=O)oc2cc(C)cc(OCC(=O)NC3CC3)c12,18%
Cc1ccc(/C=C/C(=O)O)cc1S(=O)(=O)Nc1ccc2c(c1)OCO2,-10%
Clc1ccc2nc3c4ccccc4cnn3c2c1,13%
COc1cccc(NC(=O)CN2C(=O)NC3(CCc4ccccc43)C2=O)c1 (stereo unspecified),-10%
Cc1ccc(S(=O)(=O)NCC(=O)N/N=C/c2ccc(Cl)cc2)cc1,-15%
CN1CCN(S(=O)(=O)c2ccc(Oc3cccc(C(F)(F)F)c3)nc2)CC1,-21%
O=C(NNC(=O)c1ccccc1C(=O)O)c1ccc(S(=O)(=O)N2CCCCC2)cc1,1%
O=C(Nc1ccnn1C1CCN(CC2CC=CCC2)CC1)c1ccccc1Cl (stereo unspecified),0%
COc1ccc(C(=O)OCC(=O)NC23CC4CC(CC(C4)C2)C3)c(OC)c1OC,-13%
CC(=O)Nc1cccc(NC(=O)CSc2nccn2C2CCCC2)c1,14%
COCc1cc(C)nc(SCC(=O)Nc2ccc3[nH]c(=O)[nH]c3c2)c1C#N,24%
Cn1c(SCc2nc3cc(C(=O)O)ccc3c(=O)[nH]2)nnc1C(F)(F)F,-19%
c1cc2c(cc1-c1csc(NNC3=NCCCCC3)n1)OCCO2,?
O=C(Nc1ccc(-c2nnc3n2CCCCC3)cc1)c1ccco1,?
CCOc1cc(C(=O)NCc2nnc(SCC(=O)OC)n2C)cc(OCC)c1OCC,0%
Cc1ccc2scc(CN3CCCC3)c2c1,-9%
COc1ccc(NC(=S)N(CCCN2CCCCCC2)Cc2cccs2)cc1,5%
O=[N+]([O-])c1ccccc1N=Nc1ccc(O)cc1O,-12%
COc1ccc(NC(=O)CCCn2cnc3ccccc3c2=O)cc1,6%

4 entries from above in a different format:
Molecule: CCOC(=O)/C(C#N)=C1/SC(CC)C(=O)N1c1ccc(C)cc1 (stereo unspecified)
  VDR inh = 2%
Molecule: CCc1cc(=O)oc2cc(C)cc(OCC(=O)NC3CC3)c12
  VDR inh = 18%
Molecule: Cc1ccc(/C=C/C(=O)O)cc1S(=O)(=O)Nc1ccc2c(c1)OCO2
  VDR inh = -10%
Molecule: Clc1ccc2nc3c4ccccc4cnn3c2c1
  VDR inh = 13%

Only part of the results is shown; rates above refer to the full screens.
